High-throughput results: PubChem, National Center for Advancing Translational Sciences (NCATS)
VDR inhibitor = vitamin D3 receptor (human) inhibition; VDR-SRC2-3 peptide fluorescence polarization, 2 h; P11473; Potency, µM, for the others: max response, negative = inhibition, most hits filed as inhibitors; 0.93% of 400,000 active; active = well fitted inhibition curve with a large enough effect; inconclusive = small, poorly fitted or top-dose-only effect, or another doubt; inactive = no such curve, though single readings can be large or run the other way; note: series mostly up to about 120 µM
Target sequence (P11473 whole entry, looked up): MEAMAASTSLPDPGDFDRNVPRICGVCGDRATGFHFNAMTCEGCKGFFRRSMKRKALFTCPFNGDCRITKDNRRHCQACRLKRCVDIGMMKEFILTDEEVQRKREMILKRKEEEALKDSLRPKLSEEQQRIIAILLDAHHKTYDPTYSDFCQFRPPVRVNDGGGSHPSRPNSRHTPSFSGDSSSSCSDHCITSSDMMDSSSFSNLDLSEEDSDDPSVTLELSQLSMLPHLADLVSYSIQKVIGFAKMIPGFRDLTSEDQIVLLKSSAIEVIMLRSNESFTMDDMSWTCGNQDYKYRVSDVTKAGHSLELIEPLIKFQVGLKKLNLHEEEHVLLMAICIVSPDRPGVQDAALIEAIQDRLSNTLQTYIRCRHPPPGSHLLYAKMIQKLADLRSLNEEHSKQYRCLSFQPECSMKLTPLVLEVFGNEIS
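Measured by FP: displacement of SRC2-3 coactivator peptide from VDR by library compounds, following a two-hour ambient incubation.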
Starred values were filed as active, the others as inactive; ? = inconclusive; [ ] = remark or other dose. % is set by controls: 0 for no effect and ±100 for the full control effect; potency is the fitted concentration of half-maximal effect. These rows are one share of the data; count on the stated rates, not on these rows.

VDR inhibitor | SMILES
-16.8% | CC(C(=O)Nc1ccc(Cl)cc1)c1ncc(C(F)(F)F)cc1Cl (stereo not given)
-0.1% | O=C(O)COCC(=O)N1CCN(C2c3ccccc3-c3ccccc32)CC1
-3.2% | COc1ccnc(NCc2cccnc2)c1C#N
6.9% | COc1ccc(C2(O)CCN(C(=O)c3c(F)cccc3F)CC2)cc1
10.6% | C=CCn1cc(C(=O)c2cc(Br)ccc2O)cc(C#N)c1=O
8.0% | O=C(NCCCn1ccnc1)/C(=C\c1ccco1)NC(=O)c1ccco1
-6.7% | C[C@H]1CN([C@@H](C)CO)C(=O)Cc2cc(NS(C)(=O)=O)ccc2O[C@@H]1CN(C)Cc1ccc(Cl)c(Cl)c1
-0.5% | O=C(COC(=O)CCC(=O)c1cccs1)Nc1cccc(F)c1
-28.8% | CCCCN(C(C)=O)c1ccc2c(c1)C1CC2CCN1C(=O)OCc1ccccc1 (stereo not given)
-13.9% | COc1ccc(NC(=O)c2ccc(C)cc2)cc1
-25.9% | COc1ccc(NC(=O)Nc2cccs2)cc1Cl
-9.2% | Cc1cc(N2C(=O)CC(Cc3ccc(Cl)cc3)C2=O)no1 (stereo not given)
-20.9% | Cc1ccc(/C=C(\CCC(=O)O)c2nc3ccccc3s2)cc1[N+](=O)[O-]
4.2% | O=C(C(=O)N1CCN(c2ccccc2)CC1)c1cn(CC(=O)N2CCCCCC2)c2ccccc12
5.6% | CON
10.0% | NC(=O)c1ccc(/C=N/O)nc1
14.7% | O=c1c2oc3ccccc3c2n(Cc2ccccc2)c(=O)n1Cc1ccc2c(c1)OCO2
10.8% | Cc1ccc(N2C(=O)C(CC(=O)Nc3cccc(F)c3)N(CCc3ccncc3)C2=O)cc1 (stereo not given)
14.4% | CCc1cccc(NC(=O)[C@@H]2CCCN2C2=NS(=O)(=O)c3ccccc32)c1
10.0% | O=C1C2C3CCC(O3)C2C(=O)N1c1cc(OCC(F)F)cc([N+](=O)[O-])c1 (stereo not given)
-10.0% | CCOC(=O)C1=C(CC)Nc2ccccc2N=C1NC(=O)CCN1C(=O)C2CCCCC2C1=O (stereo not given)
-18.1% | Cc1ccc([N+](=O)[O-])cc1S(=O)(=O)N1CCCC1
-19.9% | COc1cc(C(=O)NCC(=O)N/N=C/c2c(C)[nH]c3ccccc23)cc(OC)c1OC
-9.7% | COc1ccc(CC(=O)NNC(=O)c2ccccc2)cc1OC
-1.9% | O=C(COc1nnnc2ccccc12)N1CCCc2ccccc21
15.0% | Cc1ccc(S(=O)(=O)NCCCCC(NC(=O)OC(C)(C)C)C(=O)O)cc1 (stereo not given) (tested in a mixture with another compound)
-13.8% | CC(CNC(=O)c1ccc2c(c1)OCO2)c1ccc([N+](=O)[O-])cc1 (stereo not given)
0.6% | COc1cc(NC(=O)c2cccc(F)c2)cc(OC)c1OC
-20.4% | COc1ccccc1NS(=O)(=O)c1cccc(C(=O)NCC(c2ccc(F)cc2)N2CCOCC2)c1 (stereo not given)
-10.2% | CCOC(=O)N1N=C(C)CC1(O)c1ccccc1 (stereo not given)
-7.1% | CCn1c(=O)n(CC)c2cc(S(=O)(=O)NCCOc3ccccc3)c(C)cc21
5.8% | CC(=O)c1c(C)[nH]c(C(=O)COc2cc(C)ccc2C(C)C)c1C
29.5% | COC(=O)c1ccccc1NC(=O)CSc1nccc(C)n1
9.3% | COc1ccc(N(CC(=O)NCCc2ccccc2)C(=O)CCC(=O)Nc2ccccn2)cc1
18.4% | COc1ccc(CCNCC(O)COc2cccc(Br)c2)cc1OC (stereo not given)
-12.7% | CCCCn1c(N)c(N(CC)C(=O)c2ccccc2C)c(=O)[nH]c1=O
? | O=[N+]([O-])c1cc(-c2cnc3ccccc3n2)ccc1Cl
-6.4% | CN1CC[C@@H]2C(=O)N3CCc4ccc(Br)cc4[C@@H]3C[C@@H]21
-10.7% | Cc1cc(-c2nnc(CCC(=O)N3CCN(Cc4cccc(F)c4)CC3)o2)c(C)o1
-4.6% | S=C1NCCNC(=S)NCCOCCN1
-6.2% | CCC1CCCCN1C(=O)N[C@@H](Cc1ccccc1)C(=O)O (stereo not given in full)
3.0% | COc1ccc(Oc2ncc3nc(-c4cc(F)cc(F)c4)c(=O)n(CCC#N)c3n2)cc1
22.4µM* | Cc1cc2nc(/C(C#N)=C/c3ccncc3)[nH]c2cc1C
-6.2% | COCCN(C(=O)CNC(=O)c1ccco1)C(C(=O)NC1CCCCC1)c1cccnc1 (stereo not given)
-11.1% | NNC(=O)c1cccc(S(=O)(=O)Nc2cc(Cl)ccc2Cl)c1
3.2% | COCCCNc1nc2ccccc2nc1NS(=O)(=O)c1ccc(Cl)cc1
-11.6% | CC(NC(=O)c1ccc(OC2CCN(Cc3ccccn3)CC2)cc1)c1ccccc1 (stereo not given)
8.6% | C/C(N)=C(/C#N)C(=O)COC(=O)CCSc1ccccc1Cl
0.4% | CCOc1ccc(NC(=O)CN2CCN(CC(=O)Nc3ccc(F)cc3)CC2)cc1
16.1% | CC1(NC(=O)CCc2nc3sc4c(c3c(=O)[nH]2)CCCC4)CCS(=O)(=O)C1 (stereo not given)

(listing goes on)
VDR inhibitor | SMILES
-20.9% | CCCS(=O)(=O)Nc1ccc(N2CCCCC2)c(S(=O)(=O)Nc2ccccc2OC)c1
-11.0% | Cc1ccc(S(=O)(=O)N2CCN(C(=O)COC(=O)/C=C/c3ccc([N+](=O)[O-])cc3)CC2)c(C)c1
? | c1ccc(CNc2nc(-c3cccnc3)cs2)cc1
3.4% | COc1cccc(CN2C(=NC(=O)CCC3CCCC3)SC3CS(=O)(=O)CC32)c1 (stereo not given)
-27.3% | Cc1ccc(B(O)O)cc1
-15.7% | Nc1nc(N)nc(-c2cccc(Cl)c2)n1
-13.1% | CCOc1cccc(C=NCCc2ccc(OC)c(OC)c2)c1O
-2.8% | CC(=O)Oc1ccc(C(=O)Cc2ccc3ccccc3n2)c(O)c1C
-26.9% | Cc1ccc(S(=O)(=O)N(C)C)cc1NC(=O)c1cc(=O)[nH]c2ccccc12
-12.2% | NC(=O)c1ccc(NC(=O)COC(=O)CCC(=O)c2ccc(Cl)cc2)cc1
3.5% | COc1ccc(CC(=O)NCC(c2ccc(N(C)C)cc2)N2CCOCC2)cc1 (stereo not given)
-7.2% | CCCN1CCN(C(=O)c2noc3c2COc2ccc(C)cc2-3)CC1
8.2% | COc1ccc(S(=O)(=O)N2CCC(Nc3ccccc3Cl)CC2)cc1
-11.7% | CN(C)S(=O)(=O)c1cccc(COC(=O)c2cccnc2Cl)c1
10.1% | Cc1ccc(-c2noc(-c3ccc(N4CCCCC4C)c([N+](=O)[O-])c3)n2)cc1 (stereo not given)
0.1% | COc1ccc(Cl)cc1C(=O)Nc1ccc(NC(=O)C(C)C)cc1
-0.6% | CC(=O)c1cn(Cc2ccccc2)c(=O)n(Cc2ccc(F)cc2)c1=O
16.8% | Cn1c(=O)[nH]c(=O)c2c1nc(N/N=C/c1cccnc1)n2Cc1ccc(Cl)cc1
-3.3% | COc1ccccc1OCCC(=O)OCC(=O)Nc1ccc(S(=O)(=O)N2CCOCC2)cc1
-19.5% | CN1CCN(S(=O)(=O)c2ccc(NC(=S)NC(=O)C3CCC3)cc2)CC1

6 compounds drawn at random from those above:
VDR inhibitor | SMILES
-19.5% | CN1CCN(S(=O)(=O)c2ccc(NC(=S)NC(=O)C3CCC3)cc2)CC1
8.2% | COc1ccc(S(=O)(=O)N2CCC(Nc3ccccc3Cl)CC2)cc1
0.1% | COc1ccc(Cl)cc1C(=O)Nc1ccc(NC(=O)C(C)C)cc1
16.8% | Cn1c(=O)[nH]c(=O)c2c1nc(N/N=C/c1cccnc1)n2Cc1ccc(Cl)cc1
3.5% | COc1ccc(CC(=O)NCC(c2ccc(N(C)C)cc2)N2CCOCC2)cc1 (stereo not given)
-3.3% | COc1ccccc1OCCC(=O)OCC(=O)Nc1ccc(S(=O)(=O)N2CCOCC2)cc1

Continuation:
VDR inhibitor | SMILES
-6.2% | O=C(N/N=C/c1ccco1)c1cc(-c2ccc3ccccc3c2)n[nH]1
18.9% | CC(=O)c1ccc(N2CCN(C(=O)CCS(=O)(=O)c3ccc4c(c3)CCN4C(C)=O)CC2)cc1
? | Cc1ccc(OCCn2c(=S)[nH]c3ccccc32)c(C(C)C)c1
-2.7% | CC1=C(C(=O)OC(C)C)C(c2cccc(F)c2)N2C(=O)C(C)SC2=N1 (stereo not given)
-9.1% | CCC(=O)N1CCc2cc(S(=O)(=O)NCCC(=O)Nc3ccc(OC)c(Cl)c3)ccc21
-7.2% | O=C(COC(=O)c1ccc([N+](=O)[O-])o1)NC12CC3CC(CC(C3)C1)C2
-8.2% | COc1ccc(C(=O)N2CCN(C(=O)Cc3ccccc3)CC2)cc1
79.4µM* | Cc1ccc(NC(=S)c2ccc3ccccc3n2)c(C)c1
17.1% | CC(=O)Nc1ccc(OCCOc2ccccc2C(C)=O)cc1
-15.2% | Cc1cc[n+](-c2nc3ccccc3nc2[N-]S(=O)(=O)c2cccs2)cc1C

An excerpt of these results, field by field:
smiles: CCCN1CCN(C(=O)c2noc3c2COc2ccc(C)cc2-3)CC1
  VDR inhibitor = -7.2%
smiles: COc1ccc(S(=O)(=O)N2CCC(Nc3ccccc3Cl)CC2)cc1
  VDR inhibitor = 8.2%
smiles: CN(C)S(=O)(=O)c1cccc(COC(=O)c2cccnc2Cl)c1
  VDR inhibitor = -11.7%
smiles: Cc1ccc(-c2noc(-c3ccc(N4CCCCC4C)c([N+](=O)[O-])c3)n2)cc1 (stereo not given)
  VDR inhibitor = 10.1%

Next section.
VDR inhibitor | SMILES
-4.4% | C=CCOc1ccccc1CN1CCC(n2nccc2NC(=O)C2CCOC2)CC1 (stereo not given)
-14.2% | Cc1ccc2sc(C)cc(=O)c2c1
-15.9% | CC(Sc1nn(-c2ccc(Cl)cc2)c(=S)s1)C(=O)NCC1CCCO1 (stereo not given)
1.1% | Cc1cc(C)c(S(=O)(=O)NCCc2ccncc2)c(C)c1
1.4% | CC(=O)Nc1ccc(S(=O)(=O)N(C)CC(=O)OCC(=O)Nc2cc(C)on2)cc1
0.5% | CC(C)(C)OC(=O)N[C@H](C(=O)OC(C)(C)C)c1ccccc1
-4.6% | Cn1cc(S(=O)(=O)N2CCc3ccccc3C2)c(=O)n(C)c1=O
-6.6% | CCCCOc1ccccc1NC(=O)c1scc2c1OCCO2
-13.4% | O=C(CNS(=O)(=O)c1c(Cl)cccc1Cl)OCc1csc(-c2ccccc2)n1
-7.1% | CN(CC(=O)Nc1ccccc1Cl)C(=O)COC(=O)c1cccs1
1.8% | COCCCNC(=O)CCCCCNS(=O)(=O)c1ccc(Br)cc1
91.1%[activator] | CCN(CC)S(=O)(=O)c1cc(C(=O)Nc2nncs2)c(Cl)cc1Cl
-20.3% | Cc1ccc(CN2C(=O)c3ccccc3Sc3ccc(C(=O)NCCN4CCOCC4)cc32)cc1
-1.4% | CC(C(=O)N1CCOCC1)N1C(=O)C2C3C=CC(C4CC34)C2C1=O (stereo not given)
7.2% | O=C1NCCCC1C(=O)Nc1cccc(C(F)(F)F)c1 (stereo not given)
18.3% | O=C(Nc1nc(-c2ccccc2Cl)cs1)c1cccnc1
-15.4% | CCn1cc2nc(SCc3cccc(OC)c3)n(Cc3ccc(Cl)cc3)c(=O)c2n1
89.1µM* | COc1ccc(-c2nc3c(c(SCC(=O)N4CCCCC4)n2)Cc2cc(Cl)ccc2O3)cc1
13.3% | O=C(Nc1ccccc1C(=O)NCC1CCCO1)c1ccco1 (stereo not given)
-10.1% | Cc1ccc(NS(=O)(=O)c2cccc3nsnc23)cc1C
0.7% | CCOC(=O)N1CCN(C(=O)c2ccc(NC(=O)CC)cc2)CC1
8.2% | CCOc1c(Cl)cc(Cl)cc1CNCCNCCO
9.3% | O=C(Cn1c(=O)n(Cc2ccccc2)c(=O)c2sc3ccccc3c21)NCc1ccccc1Cl
4.8% | COc1ccc(NC(=O)COC(=O)c2cc(C)oc2C)c([N+](=O)[O-])c1
-6.0% | C/C(=N\Nc1ccccn1)c1ccc(N2CCOCC2)cc1
-12.3% | COc1ccc2c(c1)OC[C@H]1[C@H]2N2C(=O)c3cc(OC)ccc3NC(=O)[C@@]2(C)[C@H]1c1ccccc1
3.2% | Cc1ccc(S(=O)(=O)c2cn(CC(=O)Nc3cccc(C)c3)c3cc4c(cc3c2=O)OCO4)cc1
12.4% | CC1=CC(=C(C#N)C#N)C=C(C)N1Cc1ccc(Cl)cc1
5.9% | Cn1cccc1C(=O)N1CCC[C@@]2(CCN(c3ccccn3)C2)C1
-7.1% | CCOc1ccc(OCCC(=O)NNC(=O)c2ccncc2)cc1
0.3% | COc1cccc(Cn2c(=O)c(C)nc3cnc(N(C)C)nc32)c1
-8.5% | O=C(O)c1ccc(NS(=O)(=O)c2ccc(C(=O)Nc3ccccc3)cc2)cc1
-16.6% | O=C(NNC(=S)Nc1ccc(Br)cc1Cl)c1ccncc1
-20.4% | Cc1ccc(/C=N/NC(=O)Cc2cccn2C)s1
9.4% | COC(=O)C1=CN(C)C=C(C(=O)OC)C1c1ccc(O)c(OC)c1
9.7% | O=C(CCS(=O)(=O)c1cccc2nonc12)NCCc1ccccc1
11.9% | O=C(Nc1sc2c(c1C(=O)NC1CCCCC1)CCC2)c1ccco1
-16.3% | Cc1csc(NC(=O)/C=C/c2ccco2)n1
16.2% | Cc1cc2cc(CN(Cc3ccc4c(c3)OCO4)C(=O)c3cnccn3)c3nnnn3c2cc1C
-17.9% | CCOc1ccc(-n2ccnc(SCC(=O)NCc3cccc(OC)c3)c2=O)cc1
3.4% | COc1ccccc1OC(=O)c1ccc(S(=O)(=O)N(C)C)cc1
-8.9% | COc1ccc(-n2cc(C(=O)O)c3ccccc3c2=O)cc1
0.1% | O=C(Nc1ccc2nc(-c3cccnc3)[nH]c2c1)C12CC3CC(CC(C3)C1)C2
5.0% | CCCn1[nH]cc(SC)c(=O)c1=O
